AID504770: growth inhibitors of E. coli YBA685 in a screen for V. cholerae RctB (chromosome II replication) inhibitors | E. coli YBA685 rctB-dependent plasmid, OD600 growth, 3 h; active compounds read low | z-score (no concentration beside the values) | 130,000 tested, 0.27% active;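 active = z-score under -2 on both plates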;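 also: wells of about 30 µL received 100 nL stock; score is relative to mean and SD of the test wells; the first replicate is given; strong numbers were not always called active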
Ba CapD inh: blocks the Bacillus anthracis CapD enzyme; AID 492967; z-score (concentration not given with the values); purified CapD enzyme, fluorescence intensity read-out; active compounds read low; some hits fall short of the stated cut; 140,000 tested, 0.23% active;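 active = z-score under -4 in either of two replicates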;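 also: stock transfer was 100 nL into about 40 µL; score is relative to mean and spread of the plate; one replicate is shown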
Active calls of the source: *; . = not tested or not shown; & = joins results of further samples. These rows are one share of the data, so the mix of outcomes need not match the whole.

SMILES	AID504770	Ba CapD inh
Cc1c(N=CN2CCOCC2)c(=O)n(C)c(=O)n1C	1.05	-0.585
CCC(C)Sc1ncnc2sccc12 (centres undefined)	-0.05	.
N#CCCn1nc(-c2ccccc2)cc1N	-0.75	0.925
S=C(NN=C1CCCCCC1)Nc1ccccc1	0.4	0.22
Cn1nc(-c2ccc(C(=O)N3CCCCC3)cc2)c2ccccc2c1=O	-0.1	.
Cc1noc(C)c1CSc1ncccc1C(=O)N1CCCC1c1cccs1 (centres undefined)	-0.05	.
C=CCNc1nc(Nc2ccc(Cl)cc2)nc(N2CCCC2)n1	.	0.215
O=S(=O)(c1cccc2nonc12)N1CCC(n2cccc2)CC1	-0.45	0.31
Cc1ccc(-c2noc(CN(C(=O)NC3CCCCC3)C(C)C)n2)cc1	0.45	-0.945
CCOC(=O)Cc1csc(SCC(=O)N2CC(=O)Nc3ccccc32)n1	2.3	.
O=S(=O)(NCc1cccs1)c1cccc2nsnc12	.	-0.64
O=C(NCCCN1CCOCC1)c1ccc(CS(=O)c2ccccc2)o1 (centres undefined)	0.1	0.1

Five entries picked at random from the list so far, as already listed:
SMILES	AID504770	Ba CapD inh
Cc1ccc(-c2noc(CN(C(=O)NC3CCCCC3)C(C)C)n2)cc1	0.45	-0.945
Cc1c(N=CN2CCOCC2)c(=O)n(C)c(=O)n1C	1.05	-0.585
O=S(=O)(NCc1cccs1)c1cccc2nsnc12	.	-0.64
O=C(NCCCN1CCOCC1)c1ccc(CS(=O)c2ccccc2)o1 (centres undefined)	0.1	0.1
C=CCNc1nc(Nc2ccc(Cl)cc2)nc(N2CCCC2)n1	.	0.215

Later entries.
SMILES	AID504770	Ba CapD inh
O=S(=O)(Nc1cc(C(F)(F)F)cc(C(F)(F)F)c1)c1ccccn1	0.7	-0.19
Cc1ccc(NC(=O)C(C)Sc2nc(N)cc(N)n2)c(C)c1 (centres undefined)	-0.15	.
COc1cc(C(=O)NN(C)C)cc(OC)c1OC	.	-0.83
Cc1ccc(S(=O)(=O)N(CC(O)Cn2c3ccccc3c3ccccc32)c2ccc(F)cc2)cc1 (centres undefined)	.	2.65
COC(=O)c1c(C)noc1-c1ccc(Cl)cc1	-0.45	-0.125
NNC(=S)NC1CC2CCC1C2 (centres undefined)	-0.75	0.325
Cc1cc(C)cc(Oc2coc3c(CN4CCCCCC4)c(O)ccc3c2=O)c1	-1.25	1.41
CCOC(=O)c1cc(=O)[nH]c2ccccc12	0.05	6.04
O=C(Cc1cccc2ccccc12)NCc1cccs1	-0.6	-0.635
O=c1c2c(nc3[nH][nH]c(=S)n13)-c1ccccc1CC21CCCC1	.	4.11
Cc1cccc(OCC(=O)Nc2ccccc2C(=O)N2CCOCC2)c1	1.55	1.05
CCCC(C)NS(=O)(=O)c1ccccc1 (centres undefined)	-0.6	.
COC(=O)Oc1cc2oc(=O)sc2cc1Cl	-1.1	-0.7
O=S1(=O)CC(c2ccccc2)CS(=O)(=O)C1CC1S(=O)(=O)CC(c2ccccc2)CS1(=O)=O (centres undefined)	0.4	.
Clc1c(-c2nnc(-c3cccs3)o2)sc2ccccc12	-0.3	.
c1ccc(CNCC2CC2)cc1	0.85	.
Fc1ccc(Cn2c3ccccc3c3nn4cnnc4nc32)cc1	1.8	-0.055
O=C(Cn1cnc2onc(-c3ccc(F)cc3)c2c1=O)NC1CCN(Cc2ccccc2)CC1	1.15	-0.7
FC(F)(F)COc1nc(OCC(F)(F)F)nc(N2CCCCC2)n1	.	0.42
CCc1ccc(-n2c(SCC(=O)NCC(C)C)nnc2-c2ccncc2)cc1	1.7	.
COc1cccc(C2C(C(=O)Nc3ccccc3)=C(C)N=c3s/c(=C/c4cn(C)c5ccccc45)c(=O)n32)c1 (centres undefined)	.	-0.995
CCOC(=O)c1[nH]c2ccccc2c1NC(=O)c1ccc(N2C(=O)CCC2=O)cc1	-0.05	.
O=[N+]([O-])c1cccc(-c2cc(C(F)(F)F)n3nc(C4CC4)cc3n2)c1	.	0.29
Cc1noc(C)c1COc1ccc(C(=O)OCC(=O)N(C)C2(C#N)CCCCC2)cc1	-0.4	.

An excerpt of these results, field by field:
structure: FC(F)(F)COc1nc(OCC(F)(F)F)nc(N2CCCCC2)n1
- AID504770: .
- Ba CapD inh: 0.42

structure: CCc1ccc(-n2c(SCC(=O)NCC(C)C)nnc2-c2ccncc2)cc1
- AID504770: 1.7
- Ba CapD inh: .

Following part:
SMILES	AID504770	Ba CapD inh
N#Cc1ccc(NC(=O)CSc2nc3ccccc3[nH]2)cc1	-1.35	0.125
CC1CCCN(C(=O)CCS(=O)(=O)c2cc(Br)cc3c2N(C(=O)C2CC2)CC3)C1 (centres undefined)	1.65	-0.76
O=C(Nc1ccccc1)c1nnn(Cc2ccccc2)c1NC(=O)C(F)(F)F	-1.1	-0.21
CC1CCCN(CC(=O)c2ccccc2F)C1 (centres undefined)	1.3	.
N#CCC(=O)N/N=C/c1cc2ccccc2[nH]1	0.65	-0.885
Cc1ccc(S(=O)(=O)/N=C(\NN(C)C)c2ccccc2)cc1	0.55	0.715
CCc1noc(C)c1C(=O)OCC(=O)Nc1ccc(NC(C)=O)cc1	0.6	.
CC(=O)OCC1=C(C(=O)O)N2C(=O)[C@@H](N)[C@H]2SC1	.	-0.02
O=C1c2ccccc2-c2nc3ccccc3c(=O)n21	1.15	.
CCCC(c1nnnn1CC1CCCO1)N(Cc1cc2cc(C)cc(C)c2[nH]c1=O)C1CCCC1 (centres undefined)	-1.15	.
COC(=O)NNc1ncccc1C(F)(F)F	-1.4	0.715
O=C(COC(=O)c1ccc2ccccc2n1)c1ccc(Cl)c(Cl)c1	0.65	0.13

Full records, looked up by structure.
`Cc1ccc(S(=O)(=O)/N=C(\NN(C)C)c2ccccc2)cc1` across the screens: AID504770: 0.55; Ba CapD inh: 0.715
`CC1CCCN(CC(=O)c2ccccc2F)C1` (centres undefined) across the screens: AID504770: 1.3; Ba CapD inh: .

Next section.
SMILES	AID504770	Ba CapD inh
CCC(C)C(C(=O)O)N1C(=O)c2ccccc2C1=O (centres undefined)	0.55	0.23
COC(C)(C)CCC[C@H](C)C/C=C/C(C)=C/C(=O)OC(C)C	0	.
O=C(O)C1C2C=CC(CC2)C1C(=O)N1CCN(C(c2ccc(F)cc2)c2ccc(F)cc2)CC1 (centres undefined)	.	-0.83
O=C(c1ccc(S(=O)(=O)N2CCOCC2)cc1)n1nnc2ccccc21	1.95	.
COc1ccc(N(NC(=O)C(c2ccc(C)cc2)(c2ccc(C)cc2)c2ccc(OC)cc2)C(=O)c2ccccc2)cc1	.	-0.265
O=C(CCn1cnc2onc(-c3ccc(F)cc3)c2c1=O)N1CCCc2ccccc21	-1.3	-1.39
N#CCS(=O)(=O)c1ccc(F)cc1	.	0.44
CCOc1ccc2nc(NC(=O)c3ccccc3OC)sc2c1	-1.05	.
COC(=O)Cn1c2ccc(Cl)cc2c2nc3ccccc3nc21	-0.15	-0.57
c1ccc(-c2nnc3n2N=C(c2cccs2)CS3)cc1	0	-1.28
Oc1c(CN2CCOCC2)cc(Cl)c2cccnc12	-0.35	.
Cc1ccc(C)n1-c1ccc(S(N)(=O)=O)cc1	2.15	0.46
COc1ccc2c(c1)c(=O)oc1cc(O)ccc12	-0.3	-0.505
CC(C)[C@@H]1CC[C@@H](C)C[C@@H]1OC(=O)C(O)C(O)C(=O)O[C@H]1C[C@H](C)CC[C@H]1C(C)C (some centres undefined)	-0.4	0
c1ccc(Cn2cc(-c3ccc4ccccc4n3)cn2)cc1	.	37
CN(Cc1ccccc1)C(=O)COc1ccc(S(=O)(=O)N2CCCC2)cc1	0.2	.
COc1ccc(C2CC(C(F)(F)F)n3nc(C(=O)N4CCN(c5cccc(Cl)c5)CC4)cc3N2)cc1 (centres undefined)	.	0.225
C=CCSC1=N/C(=C\c2ccsc2)C(=O)S1	-0.2	-0.36
COc1ccccc1C/C(N)=N/O	-0.05	.
O=C(NCCNc1ccccc1)OCCc1ccc(Br)cc1	.	0.085
N#Cc1ccc(N2CCN(S(=O)(=O)c3ccc(Cl)cc3Cl)CC2)cc1	.	0.105
CC(C)n1nnnc1SCC(=O)c1ccc(F)cc1	-0.3	.
O=c1/c(=C/C2=Cc3ccccc3OC2)sc2nc3ccccc3n12	1.15	.
NC1=NC2(CCCCC2)n2c(nc3ccccc32)N1	-1.1&0.65	-0.17
CC(=O)N1CCC(N2Cc3ccccc3-n3cccc3C2C(=O)O)CC1 (centres undefined)	.	-0.325
Cc1cccc(N2CCN(CCNC(=O)Cn3ncc4c5ccccc5n(C)c4c3=O)CC2)c1C	0.7	1.27
CCCn1c(=S)[nH]c2cc(C(=O)N3CCC(O)(c4cccc(C(F)(F)F)c4)CC3)ccc2c1=O	.	-0.21
Cc1cc(OCC(=O)Nc2nnn(C)n2)ccc1Cl	2	0.375
CN(C)CCCN1C(=O)C2C3C=CC(C3)C2C1=O (centres undefined)	-1.25	-0.28
COc1ccc(NC(=O)c2cc3n(n2)C(C(F)(F)F)CC(c2ccc(Cl)cc2)N3)cc1OC (centres undefined)	.	0.605
O=C(CN1CCc2ccccc21)Nc1cccc(F)c1	-0.4	.
O=c1[nH]nc(CSc2ccc(Cl)cc2)c2ccccc12	2.6	-0.485
COc1cc(-c2nc(C=Nc3cc([N+](=O)[O-])ccc3C)c(O)o2)cc(OC)c1OC	.	0.08
Cc1cc(C)n(C(=O)Cc2cn3ccsc3n2)n1	-1	-0.405
CC1(C)CC(=O)C(=CN2CCCCC2)C(=O)C1	1.9	-0.08
CC(=O)N1c2ccccc2C(=O)C1N(C)c1ccc(C)cc1 (centres undefined)	-0.45	0.135

Other structures.
Value order: AID504770, Ba CapD inh
COc1ccccc1C1CCN(C(=O)c2scc(S(=O)(=O)c3ccc(Cl)cc3)c2C)CC1
    -0.35, -0.335
COc1ccc(Cl)cc1NC(=O)c1sc(=S)n(C)c1N
    -0.35, .
Nn1c(CSc2nc3ccccc3o2)nnc1CSc1nc2ccccc2o1
    -0.4, 0.32
CSc1nnc(-c2cc3ccccc3cc2O)n1C
    -0.5, .
COC(=O)c1sccc1OCc1ccccc1
    0.05, -0.305
COC1CCC(C(=O)Nc2nc(-c3ccc4c(c3)CCN4S(C)(=O)=O)cs2)CC1 (centres undefined)
    0.8, .
O=S(=O)(NCc1cccc2ccccc12)c1ccccc1F
    ., -0.105
CCCc1ccc(OCC(=O)NC2CCCC2)cc1
    -0.2, -0.06
CCC(c1ccccc1)c1nn2c(-c3cccnc3)nnc2s1 (centres undefined)
    -0.75, .
CSC1=C(C#N)C(=O)NC(c2ccc(Cl)cc2)S1 (centres undefined)
    -0.1, -1.21
COc1cc(CN2CCC(N3C(=O)c4c(C(C)C)nc5ccccc5c4C3=O)C2)cc2c1OCO2 (centres undefined)
    ., -0.565
CC(C)NC(=O)N1CCc2sccc2C1c1ccc(Cl)cc1 (centres undefined)
    -0.25, 0.045
O=C(O)C1C2C=CC(C2)C1C(=O)NCC1CCCCC1 (centres undefined)
    0.35, -0.08
CC(=O)/C=C1\NC(C)(C)Cc2ccccc21
    ., -3.33
CCN(CC)CC1OCc2ccccc2CO1
    0.45, 0.065
Nc1c(C(=O)c2ccc(Cl)cc2)oc2ccccc12
    ., -0.445
O=C(CCCn1nc(-c2ccccc2)c2cc(Cl)ccc21)Nc1ccc(F)cc1
    0.05, 16.3
C/C(=N\O)c1sc2ccccc2c1C
    -0.15, -0.7
Cc1nc(-c2ccc(-c3cccs3)s2)sc1-c1ccnn1C(=O)C(C)(C)C
    1.15, 3.63
O=C(O)CSCC(=O)N1Cc2ccccc2CC1C(=O)O (centres undefined)
    -1.25, .
Cc1c2cnn(CC(=O)NC3CC3)c(=O)c2c(C)n1Cc1ccccc1
    0.1, 2.55
COc1ccccc1N1CCN(CC(C)Nc2ccccn2)CC1 (centres undefined)
    1.2, 0.85
Clc1ccc(SCc2nnc(-c3ccc(Cl)cc3)o2)cc1
    1.15, .
O=C(NC1CCCC1)c1cc2c(s1)CS(=O)(=O)C2
    0.05, -1.05
CN(C)S(=O)(=O)N1CCC(C(=O)O)(c2ccccc2)CC1
    -0.7, 0.225
Clc1ccc(Sc2cc3ccccc3nc2-c2ccc(Cl)cc2)cc1
    ., 0.635
O=C(COc1ccccc1)NS(=O)(=O)c1ccc(N=NN2CCOCC2)cc1
    -0.45, .
Cc1ccc(CN)cc1F
    0.1, .
O=C(O)c1ccccc1C(=O)NCc1ccc(N2CCCC2=O)cc1
    -0.4, 0.385
COc1cccc(NC(=O)c2ccc3c(SCC(=O)O)c4c(nc3c2)CCCC4)c1
    -0.45, 0.195
O=C(Oc1ccc(Cl)cc1Cl)c1cccnc1SCCS(=O)(=O)c1ccccc1
    -0.6, -0.28
CC(C)OC(=O)Cn1c(C(=O)OC(C)C)cc2c1ccn2C
    1.8, .
Fc1ccccc1N1CCN(Cc2cn[nH]c2-c2ccc(Cl)cc2)CC1
    -0.35, -0.03
CSc1nn2c(C(F)(F)F)cc(C(F)(F)F)nc2c1C(N)=O
    ., 0.305
CCOC(=O)C1C(C(=O)Nc2cccc(C(F)(F)F)c2)C1C(=O)NC(C)C (centres undefined)
    ., -0.285
CCC(CC)c1nnc(NC(=O)C2COc3ccccc3O2)s1 (centres undefined)
    -0.35, .
O=C(Nc1nc(-c2cccs2)cs1)c1ccc(S(=O)(=O)N2CCOCC2)cc1
    -0.55, -0.31
COc1cc(Cl)c(COC(=O)NCCc2c[nH]c3ccc(O)cc23)cc1OC
    ., -0.53
N#Cc1c(N)nc(SCC(=O)c2ccc(Br)cc2)c(C#N)c1-c1ccccc1
    ., 0.55
CCS(=O)(=O)NCc1ccc2[nH]c3c(c2c1)CCCC3
    -0.45, 0.68
